# Source: PubChem BioAssay (Johns Hopkins Ion Channel Center)
# KCNQ2 pot = potentiators of rat KCNQ2 potassium channel; O88943; CHO-K1 KCNQ2, FluxOR thallium flux fluorescence; hits give high values; B-score at 10 µM; 0.54% of 310,000 active; AID 2239;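 active means fluorescence ratio B-score at least 3 SD of library B-scores, with initial fluorescence B-score within 3 SD, cut at about 5.3 in these data; same plate scores as AID 2156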;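 further: B-score of peak minus minimum over baseline fluorescence ratio after K+ and Tl+ stimulus; positive B-score means potentiation of KCNQ2 with more thallium influx and brighter signal; only the inactives scoring about 0 or higher are listed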
# Target sequence (O88943 whole entry, looked up): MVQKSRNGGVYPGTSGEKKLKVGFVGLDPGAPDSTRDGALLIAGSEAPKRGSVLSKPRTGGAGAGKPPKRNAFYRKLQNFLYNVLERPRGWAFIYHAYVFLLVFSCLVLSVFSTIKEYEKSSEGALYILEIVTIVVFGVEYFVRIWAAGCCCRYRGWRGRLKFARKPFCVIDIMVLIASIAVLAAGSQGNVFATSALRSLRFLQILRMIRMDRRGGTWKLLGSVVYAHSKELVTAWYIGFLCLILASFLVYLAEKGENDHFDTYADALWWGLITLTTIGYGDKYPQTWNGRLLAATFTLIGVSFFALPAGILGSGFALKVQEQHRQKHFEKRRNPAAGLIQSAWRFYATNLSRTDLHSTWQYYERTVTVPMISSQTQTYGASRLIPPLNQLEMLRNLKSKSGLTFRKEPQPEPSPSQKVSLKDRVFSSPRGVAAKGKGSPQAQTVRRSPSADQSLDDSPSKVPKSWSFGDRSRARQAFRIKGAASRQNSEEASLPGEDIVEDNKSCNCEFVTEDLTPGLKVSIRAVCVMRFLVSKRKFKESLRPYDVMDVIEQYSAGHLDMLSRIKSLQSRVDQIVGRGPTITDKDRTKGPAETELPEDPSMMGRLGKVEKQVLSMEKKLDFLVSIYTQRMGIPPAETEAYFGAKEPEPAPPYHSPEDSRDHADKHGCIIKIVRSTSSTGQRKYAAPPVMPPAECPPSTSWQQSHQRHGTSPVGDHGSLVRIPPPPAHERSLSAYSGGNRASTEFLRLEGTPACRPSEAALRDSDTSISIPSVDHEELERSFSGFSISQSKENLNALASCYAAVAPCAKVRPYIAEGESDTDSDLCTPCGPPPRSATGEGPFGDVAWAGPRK
# KCNQ2 pot baseline = further read-out of KCNQ2 pot, marked with its call; B-score; compound at 10 µM; measured here: initial fluorescence intensity artifact check;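 brightness before thallium and not channel activity; 0 = typical well and far values either way flag optical interference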
# Numbers without * were called inactive. A portion of the library; rates above refer to the full screens.
SMILES,KCNQ2 pot,KCNQ2 pot baseline
COc1ccc(C(O)(CC(C)C)C(CN2CCOCC2)c2ccccc2)cc1 (configuration not stated),3.84,1.34
C=CCNc1nnc(SCC(=O)Nc2ccccc2OC)c2ccccc12,0.34,1.1
Cc1ccc(CC(=O)Nc2ccc(OC(F)F)c(Cl)c2)cc1C,7.79*,2.05*
O=c1cc(CN2CCN(Cc3ccccc3)CC2)c2cc3c(cc2o1)CCC3,0.11,0.52
COc1cccc(-c2nc3c(c(SCC(=O)N4CCOCC4)n2)Cc2c(CO)cnc(C)c2O3)c1,0.06,0.1
Cc1ccc(Cc2c[nH]c(=S)s2)cc1,7.87*,1.32*
CSc1nc(-c2ccco2)nn1S(C)(=O)=O,0.36,0.16
CCn1ncc(C2=NOC(C(=O)Nc3ccc(C)cc3)C2)c1C (configuration not stated),4.85,-0.01
Cc1cccc(-n2c(O)c(C=NC3CCS(=O)(=O)C3)c3ccccc3c2=O)c1 (configuration not stated),0.72,-2.74
O=C(CSc1ncnc2c1cnn2-c1ccc(F)cc1)NCC1CCCO1 (configuration not stated),0.95,-0.77
NC(=O)COc1ccc(/C=N/NC(=O)C2CCCN2S(=O)(=O)c2ccc(Cl)cc2)cc1 (configuration not stated),0.46,-1.42
CCCCn1c(-c2ccc([N+](=O)[O-])cc2)n[nH]c1=S,0.08,-2.28
O=C(O)c1cccc(NS(=O)(=O)c2ccc(Oc3ccc(S(=O)(=O)Nc4cccc(C(=O)O)c4)cc3)cc2)c1,0.17,0.17
N#CCOc1coc(CN2CCN(c3ccccc3)CC2)cc1=O,0.79,-0.82
Oc1ccc2ccccc2c1CNn1cnnc1,0.03,0.68
O=C(NN1C(=O)C2C3C=CC(C4CC34)C2C1=O)c1cccc(Br)c1 (configuration not stated),1.38,-0.32
O=C(CSc1ncnc2ccccc12)c1cccs1,1.54,0.23
CCCCn1cc2c(c1-c1cccc(C)c1)c(=O)n(C)c(=O)n2C,0.16,2.26
CCc1ccccc1N(C(=O)c1snc(C(N)=O)c1N)C(C(=O)NCC1CCCO1)c1ccc(C)o1 (configuration not stated),2.68,-1.08
CCn1c(SCC(=O)NCC(=O)Nc2ccc(F)cc2)nnc1-c1cccs1,0.31,-0.3
Cc1ccc(NC(=O)COC(=O)/C(=C/c2cccs2)c2cccs2)cc1S(=O)(=O)N(C)C,2.26,-1.66
CCS(=O)(=O)NCc1cn2c(C)csc2n1,0.02,1.28
COc1ccc(OC)c(NC2c3ncccc3C(=O)N2Cc2ccco2)c1 (configuration not stated),0.2,0.16
O=C(Nc1nc2c(s1)CCCC2)c1nn(Cc2ccccc2)c(=O)c2ccccc12,0.49,1.83
O=C(CNC(=O)c1ccc2c(c1)OCCO2)N/N=C/c1ccco1,0.72,0.09
COC(=O)C1=CNC=C(C(=O)OC)C1c1cccc2ccccc12,0.38,-0.4
COC(=O)COC(=O)c1ccc(-n2nnnc2SC)cc1,0.05,2.02
CCN(CC)CCNC(=O)NC1CCCCC1,0.03,1.27
O=C(CCn1c(=O)c2sccc2n(CC(=O)NCc2ccco2)c1=O)NCc1ccccc1,0.15,-1.6
CSc1nc(C)cc(OCCO)n1,0.06,0.87
COc1ccc(N2CCN(C(=O)COc3ncnc4ccccc34)CC2)cc1,0.4,1.58
COC(=O)c1ccc(SCC(=O)NCc2ccccc2)c([N+](=O)[O-])c1,0.61,-0.58
COc1cccc(-c2nc(CS(=O)CC(=O)NC3CCCCC3)c(C)o2)c1 (configuration not stated),0.06,0.28
O=S(=O)(c1ccccc1)N1CCN=C1SCc1ccccc1,0.97,1.69
Cc1ccc2nc(-c3ccc(NC(=O)C4CCCO4)cc3)[nH]c2c1 (configuration not stated),2.74,0.02
O=C(/C=C/c1ccc(Cl)cc1)Nc1ccc(CN2CCOCC2)cc1,0.23,1.82

# Structural class, the entries above with a halogen
SMILES,KCNQ2 pot,KCNQ2 pot baseline
Cc1ccc(CC(=O)Nc2ccc(OC(F)F)c(Cl)c2)cc1C,7.79*,2.05*
O=C(CSc1ncnc2c1cnn2-c1ccc(F)cc1)NCC1CCCO1 (configuration not stated),0.95,-0.77
NC(=O)COc1ccc(/C=N/NC(=O)C2CCCN2S(=O)(=O)c2ccc(Cl)cc2)cc1 (configuration not stated),0.46,-1.42
O=C(NN1C(=O)C2C3C=CC(C4CC34)C2C1=O)c1cccc(Br)c1 (configuration not stated),1.38,-0.32
CCn1c(SCC(=O)NCC(=O)Nc2ccc(F)cc2)nnc1-c1cccs1,0.31,-0.3
O=C(/C=C/c1ccc(Cl)cc1)Nc1ccc(CN2CCOCC2)cc1,0.23,1.82

# Remaining list, next part.
SMILES,KCNQ2 pot,KCNQ2 pot baseline
COc1ccc(-n2ccnc2)cc1,0.14,0.72
Cc1cc(C)cc(OCC(=O)Nc2cc(NC(=O)COc3cc(C)cc(C)c3)cc(C(=O)O)c2)c1,0.25,0
Cc1cccn2c1nc(=S)n2C(=O)c1ccco1,1,0
COc1ccc(S(=O)(=O)Nc2ccc(N3CCOCC3)cc2)cc1[N+](=O)[O-],1.35,1.02
O=C(Nc1ccc(S(=O)(=O)Nc2ccccc2F)cc1)N1CCCCC1,1.49,-0.06
O=C(Cn1c(=O)sc2ccccc21)Nc1ccccc1C(=O)O,1,-1.88
Cc1ccc(S(=O)(=O)NN2Cc3ccccc3C2=N)cc1,2.73,-0.99
Cc1ccnc(Sc2nc3c(c(=O)[nH]c(=O)n3C)n2CCCc2ccccc2)n1,0.33,-0.37
CN(C)C(CNC(=O)CCC(=O)c1ccc(Br)cc1)c1ccccc1 (configuration not stated),0.38,0.26
CCCCc1cc(-c2n[nH]c(=S)o2)c2ccccc2n1,3.34,-1.24
CN(C)c1ccc(C(=O)OCC(=O)NCCC2=CCCCC2)cc1,0.34,0.01
CC(=O)NC(c1ccc(C(C)C)cc1)c1c(O)ccc2ccccc12 (configuration not stated),1.48,0.02

# The closing three records of the section before are carried over, then new ones follow:
SMILES,KCNQ2 pot,KCNQ2 pot baseline
CCCCc1cc(-c2n[nH]c(=S)o2)c2ccccc2n1,3.34,-1.24
CN(C)c1ccc(C(=O)OCC(=O)NCCC2=CCCCC2)cc1,0.34,0.01
CC(=O)NC(c1ccc(C(C)C)cc1)c1c(O)ccc2ccccc12 (configuration not stated),1.48,0.02
CC(=O)NC(c1ccc(C)cc1)c1cc([N+](=O)[O-])c2cccnc2c1O (configuration not stated),0.07,-1.03
COc1ccc(C(=O)N/C(=C\c2ccccc2)C(=O)Nc2ccc(C(=O)NCC(=O)O)cc2)cc1,0.14,0.15
COc1cc2oc(=O)ccc2c(OC)c1CC(O)C(C)(C)O (configuration not stated),0.37,0.39
Cc1ccc(NS(=O)(=O)c2c(C)[nH]c(=O)[nH]c2=O)c(C)c1,0.98,0.34
CC1(O)CC(c2ccc(Cl)cc2)=NN1C(=O)c1ccc([N+](=O)[O-])cc1 (configuration not stated),0.84,-0.93
CCc1nccn1CCC(=O)N1CCCC(Nc2ccc(C(C)C)cc2)C1 (configuration not stated),0.91,0.09
COc1ccc(CNC(=O)CNC(=O)c2sc3ccccc3c2Cl)cc1OC,0.13,-0.01
Cc1ccccc1Nc1nnc(SCC(=O)Nc2ncc(C(F)(F)F)cc2Cl)s1,1.58,0.1
COc1ccc(CNCc2ccc(C)cc2)c(OC)c1,2.41,0.65
CCCN(CCC(=O)Nc1cc(OC)cc(OC)c1)CC1CC1,0.75,-0.27
O=C(/C=C/Nc1ccc(Oc2ccccc2)cc1)c1ccco1,0.53,0.76
CS(=O)(=O)Nc1ccc(C2=NN(S(=O)(=O)c3ccc(F)cc3)C(c3ccco3)C2)cc1 (configuration not stated),0.6,1.67
COc1cc(CNc2nc(C)c([N+](=O)[O-])c(C)c2C#N)cc(OC)c1OC,1.03,-2.03
CC(=O)c1sc(NC(=O)C(C)(C)C)nc1C,0.64,0.83
COc1ccc(CC(=O)Nc2c(C(=O)N3CCN(c4ncccn4)CC3)oc3ccccc23)cc1OC,1.45,-0.1
CCC(Sc1ccc2nnc(CCNS(=O)(=O)c3ccc(OC)cc3)n2n1)C(=O)OC (configuration not stated),0.45,-0.16
COc1ccc(-c2csc(N(CCCN(C)C)C(=O)c3ccc(F)cc3)n2)cc1,0.15,0.19
CCOC(=O)c1c(-c2cccs2)csc1NC(=O)c1ccncc1,0.91,2.41
Cc1ccc(C(C)C)cc1OCCn1cncn1,0.57,0.16
O=C1c2cccnc2C(=O)N1Cc1cccs1,0.1,0.29
O=C(Nc1cccc(C(F)(F)F)c1)Oc1ccc(Cl)c2cccnc12,5.68*,0.29*
COCCNC(=O)c1ccccc1NC(=O)Cc1ccccc1[N+](=O)[O-],0.64,-0.8
CCn1c(C)nc2cc(C(=O)NNC(=O)c3ccc(Cl)nc3)ccc21,1.61,-0.82
CN(C)Cc1cccc([N+](=O)[O-])c1O,1.13,-0.85
CCOC(=O)c1cnc(SCC(=O)NNC(=O)c2ccco2)nc1N,1.39,-1.3
O=C(Cc1n[nH]c(=O)c2ccccc12)NCc1ccccn1,0.4,1.13
CCOC(=O)C1=C(N)Oc2c(oc(CO)cc2=O)C1c1c(F)cccc1Cl (configuration not stated),2.13,0.01
CCCC(=O)N1CCN(c2ccc([N+](=O)[O-])cc2Cl)CC1,0.97,-0.83
O=C(N/N=C/c1ccccc1C(=O)O)c1ccccc1Br,1.87,0.56
CC1CCCCN1S(=O)(=O)c1ccc(S(=O)(=O)N2CCCC2)cc1 (configuration not stated),0.61,0.77
c1ccc(-c2c3ccccc3nc3[nH]c4ccccc4c23)cc1,0.4,-1.58
CN(C)C(=O)CCC(=O)N(C)CC1CCCN(CCc2ccc(F)cc2)C1 (configuration not stated),0.74,-0.88
O=C(Oc1ccc(Cl)c2cccnc12)N1CCCCCC1,0.37,0.05
c1nc(NC2CCCCC2)c2[nH]cnc2n1,0.01,-0.56
Cc1ccc(S(=O)(=O)NCC2CCC(C(=O)NCc3cccs3)CC2)cc1 (configuration not stated),0.98,2.2
CC(C)(C)c1ccc(C(=O)NNC(=O)c2ccccc2Br)cc1,0.05,-1.34
COc1ccc(S(=O)(=O)NC(CCSC)C(=O)NC2CCCCC2)cc1 (configuration not stated),0.09,0.78
CC#CCN1c2ccccc2[C@]23C[C@@H](C(=O)OC)N(C(=O)NC(C)(C)C)C2=NC(C(=O)OC)=C(C(=O)OC)[C@H]13,1.2,0.32
O=C(c1cc([N+](=O)[O-])cc([N+](=O)[O-])c1)N(Cc1nnc(-c2ccccc2Cl)o1)C1CC1,0.73,0.13
O=C(Nc1cccnc1)Nc1ccc2c(c1)OCO2,1.73,-0.16
Nc1nonc1-c1nc2ccccc2n1CCC(=O)O,0.01,-1.55
O=C(Cn1c(=O)oc2ccccc21)NC(=O)NCc1ccccc1,1.28,-1.33
CCC(=O)N1c2ccc(S(=O)(=O)CCC(=O)N3CCn4c3nc3ccccc34)cc2CC1C (configuration not stated),0.48,-0.41
O=C(CCCCCN1C(=O)c2ccccc2C1=O)Oc1ccc2c3c(c(=O)oc2c1)CCC3,1.36,-1.42
O=C(C1CCN(S(=O)(=O)c2cccc3nsnc23)CC1)N1CC=C(c2ccccc2)CC1,0.71,-0.14
CCOc1cccc(NC(=O)C2CCCN(S(=O)(=O)c3ccc(OC)cc3)C2)c1 (configuration not stated),0.37,-0.04
Cc1nn(Cc2ccccc2Cl)c(C)c1C(=O)Nc1nnc(C2CC2)s1,0.46,-1.52
COc1ccc(CC(=O)N[C@@H](CCSC)c2nc3ccccc3[nH]2)cc1,1.21,-1.06

# Given with values under each structure: entries from further up
# Under each structure – KCNQ2 pot | KCNQ2 pot baseline
COc1ccc(CC(=O)N[C@@H](CCSC)c2nc3ccccc3[nH]2)cc1
 : 1.21 | -1.06
CCOc1cccc(NC(=O)C2CCCN(S(=O)(=O)c3ccc(OC)cc3)C2)c1 (configuration not stated)
 : 0.37 | -0.04
O=C(c1cc([N+](=O)[O-])cc([N+](=O)[O-])c1)N(Cc1nnc(-c2ccccc2Cl)o1)C1CC1
 : 0.73 | 0.13
O=C(C1CCN(S(=O)(=O)c2cccc3nsnc23)CC1)N1CC=C(c2ccccc2)CC1
 : 0.71 | -0.14
O=C(CCCCCN1C(=O)c2ccccc2C1=O)Oc1ccc2c3c(c(=O)oc2c1)CCC3
 : 1.36 | -1.42
CC#CCN1c2ccccc2[C@]23C[C@@H](C(=O)OC)N(C(=O)NC(C)(C)C)C2=NC(C(=O)OC)=C(C(=O)OC)[C@H]13
 : 1.2 | 0.32

# Remaining list, next part
SMILES,KCNQ2 pot,KCNQ2 pot baseline
CCOC(=O)N1CCN(CC(O)c2ccc3c(c2)CCN3)CC1 (configuration not stated),0.34,0.51
Cc1cccc(NC(=S)N2CCN(Cc3ccc4c(c3)OCO4)CC2)c1C,0.17,-0.32
Cc1ccc2nc(Cl)c(/C=N/NC(=O)c3ccccc3O)cc2c1,0.02,0.1
CS(=O)(=O)N(CC(=O)N1CCN(C(c2ccccc2)c2ccccc2)CC1)C1CCCCC1,2.1,-1.21
Cn1ncc(-c2ccno2)c1C(=O)O,1.04,-1.19
CCC(C)(C)NC(=O)CN(C(=O)c1csnn1)c1ccccc1-c1ccccc1,0.04,0.02
Cc1ccc(OCCCC(=O)Nc2ccc3c(c2)OCO3)cc1,0.39,-0.89
O=C(CCl)NC(Cc1c[nH]c2ccc(OCc3ccccc3)cc12)C(=O)O (configuration not stated),1.77,-1.98
COc1c(C)cc(S(=O)(=O)NCc2ccco2)c(C)c1C,1.85,-0.56
COc1cc(/C=C/C(=O)NC(C)C2CC3CCC2C3)cc(OC)c1OC (configuration not stated),1.06,0.29
CCOC(=O)N1CCN(C(=O)C(=O)Nc2sc3c(c2C#N)CC(C)(C)OC3)CC1,0.33,1.11
Nc1csnc1C(=O)O,2.8,-0.87
COCCCNC(=S)N1CCN(c2nc(-c3ccc(F)cc3)cs2)CC1,0.29,-0.73
Cc1ccc(OCc2cc(C(=O)N(CCO)Cc3cccs3)no2)cc1C,0.19,1.08
COc1ccc(C)cc1S(=O)(=O)NC1CC1,1.22,0.53
CCN(CC)c1ncnc2c1sc1nc(C)cc(C)c12,0.55,0.77
CCOC(=O)c1oc2ccccc2c1CSc1nnnn1-c1ccccc1,0.01,0.96
O=C1CN(c2ccccc2)C(=O)N1,2.26,0.27
